Source: PubChem (Center for Chemical Genomics, University of Michigan)
CDC25B-CDK2 inh = human CDC25B-CDK2/CyclinA binding inhibition | P30305+P24941 | 94,000 compounds, 0.72% hits | z-score (test concentration not listed) | HTRF CDC25B-CDK2/CyclinA binding, anti-His/anti-Flag; hits give high values;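 further: score is relative to mean and SD of negative controls; strong numbers were not always called active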
HIV TAR-Tat = HIV-1 TAR-Tat binding disruption; 100,000 compounds, 0.6% hits; HIV-1 TAR RNA, Tat peptide displacement FRET; hits give high values; z-score (test concentration not listed);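 further: score is relative to mean and SD of negative controls; some compounds called inactive have numbers as strong as hits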
* hit, by the source's call; . = no result given.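 How the source made its calls: active means z-score from 3 up in half or more of its runs; inactive means the rest.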

Start of the listing, in advance, 2 compounds:
The line under a structure holds: CDC25B-CDK2 inh | HIV TAR-Tat
O=c1onc(-c2cccs2)n1Cc1ccccc1F
→ -1.4 | 1.2
Cc1ccccc1COC1CN(S(=O)(=O)c2cccc3nsnc23)C1
→ . | -4.51

The listing (from the top)
The line under a structure holds: CDC25B-CDK2 inh | HIV TAR-Tat
O=c1onc(-c2cccs2)n1Cc1ccccc1F
→ -1.4 | 1.2
Cc1ccccc1COC1CN(S(=O)(=O)c2cccc3nsnc23)C1
→ . | -4.51
C#CCn1c(=O)n(CC#C)c(=O)n(CC#C)c1=O
→ -3.35 | .
COc1ccc(/C=C2/N=C(c3ccccc3)NN(Cc3ccccc3)C2=O)cc1
→ -0.56 | .
O=C(Cn1ccc2cc(S(=O)(=O)N3CCCCC3)ccc21)NC1CCCc2ccccc21 (stereo not drawn)
→ . | 0.87
CCc1cc2c(cc3c(=O)n(CC(=O)NC(C)CC)nc(CC)n32)s1 (stereo not drawn)
→ -2.71 | .
CN1CCN(C(=O)c2cnn(-c3ccc(F)cc3)c2-n2cccc2)CC1
→ . | 0.35
CCc1c(C)sc(NC(=O)c2noc(C(C)C)c2[N+](=O)[O-])c1C#N
→ -1.52 | 0.03
CCOC(=O)CSc1nnc(-c2c[nH]c3ccccc23)n1CCOC
→ -1.04 | .
CC(=O)Oc1ccc2c(c1)C(C)=CC(C)(C)N2
→ -1.18 | -0.76
CCOC(=O)CSc1c(C)[nH]c2ccccc12
→ -0.22 | .
O=C1CSc2ccc(S(=O)(=O)NCc3ccccc3Cl)cc2N1
→ . | 1.99
CCOC(=O)c1c(N)n(-c2ccc3ccccc3c2)c2nc3ccccc3nc12
→ 1.29 | -0.4
CN(C(=O)CSc1nc(-c2cccs2)cc(C(F)(F)F)n1)c1ccccc1
→ -0.71 | 1.92
CC(=O)N1N=C(COc2ccccc2Br)OC1/C=C/c1ccccc1 (stereo not drawn)
→ . | -0.31
Cn1cc(C(=O)OCC2CCN(CCNS(C)(=O)=O)CC2)c2ccccc21
→ -1.99 | .
CCOC(=O)Cn1cc(S(=O)(=O)NC2CCCCC2)c(S(=O)(=O)NC2CCCCC2)c1
→ . | 1.22
Cn1c(CCNC(=O)c2ccco2)nc2cc(NC(=O)NC3CCCCC3)ccc21
→ -2.6 | -1.7
O=C(Nc1ccc(Br)cc1F)N1CCSc2ncccc21
→ . | -0.05
OCc1ccccc1CN1CCCC1
→ -0.12 | 1.11
COCCOC(=O)c1c(C)oc2ccc(NS(=O)(=O)c3ccccc3)cc12
→ -0.26 | 0.24
C=C(C)c1cccc(C(C)(C)NC(=O)NC2CC(C)(C)NC(C)(C)C2)c1
→ -1.48 | .
CCC(=O)C1C(=O)c2ccccc2C1=O
→ 0.67 | .
CCc1cc(C=N)c([S-])s1.CCc1cc(C=N)c([S-])s1.[Zn+2]
→ 19.3* | .
CCc1ccc(-n2nc3oc4ccc(Cl)cc4cc-3c2=O)cc1
→ 0.69 | -0.11
C=CCn1c(SCc2n[nH]c(=S)o2)nnc1-c1ccccc1
→ -0.07 | .
Cc1cc(C)c2c(n1)SCCN2C(=O)CCC(=O)NC1CCC(C)CC1 (stereo not drawn)
→ . | -0.66
COc1ccc(OC)c(NC(=O)N2CCCC2c2cccs2)c1 (stereo not drawn)
→ -0.55 | 1.13
COc1ccc(Nc2nc(N3CCOCC3)nc3c2cnn3C)cc1
→ . | -0.08
COc1ccc(Oc2coc3cc(OCC(=O)OC(C)C)ccc3c2=O)cc1
→ -0.95 | .
Cc1ccc(Cl)cc1S(=O)(=O)N1CCN(c2ccc(F)cc2)CC1
→ -1.86 | .
Fc1cc(NCc2ccccc2)nc(NCc2ccccc2)n1
→ -0.61 | .
Cn1ccc2cc(S(=O)(=O)N3CCCC(C(=O)NC4CC4)C3)ccc21 (stereo not drawn)
→ . | 0.79
CC1CCN(CC2CCN(C(=O)Nc3ccc4c(c3)OCCO4)CC2)CC1
→ . | 1.62
O=C(c1cc(NS(=O)(=O)c2ccc(F)cc2)ccn1)N1CCc2ccccc21
→ . | 1.37
CCN1CCN(C(=O)c2cc3c(s2)-c2ccc(Cl)cc2SC3)CC1
→ -2.25 | 0.47
C=C1c2ccc(OC)cc2NC(=O)N1c1ccccc1
→ -1.49 | .
CCc1nn(CC(=O)NC(C)c2ccc3c(c2)OCCO3)c(=O)c2cc3occc3n12 (stereo not drawn)
→ -0.11 | 0.88
Cc1cc2c(cc1S(=O)(=O)CCC(=O)N1c3ccccc3CC1C)OCC(=O)N2 (stereo not drawn)
→ . | 0.2
C=CCSc1n[nH]c(-c2cccs2)n1
→ 1.18 | .
CN1C(=O)c2cccc3c(S(=O)(=O)Nc4ccc(C(=O)O)c(O)c4)ccc1c23
→ -1.31 | 1.9
CC(C)CCNC(=O)CN1C(=O)COc2ccc(S(=O)(=O)N3CCCC3)cc21
→ -0.95 | .
N#Cc1c(-c2ccncc2)[nH]c(=S)[nH]c1=O
→ -0.91 | .
COc1ccc(-c2cc(N)n(S(=O)(=O)c3ccc(OC)c(OC)c3)n2)c(OC)c1
→ -0.95 | 1.21
O=C1Nc2ccccc2/C1=C\c1cccc2ccccc12
→ -1.86 | .
O=C(Cn1cnc2ccccc2c1=O)Nc1nncs1
→ -0.55 | 0.63
CCC(C)NC(=O)c1ccc(-n2ccc3ccccc32)s1 (stereo not drawn)
→ . | 1.95
CCc1ccc(Nc2c(-c3ccc(C(C)C)cc3)c(=O)c2=O)cc1
→ . | 1.21
Cc1ccnc(NC(=O)c2cc3c(=O)oc4ccc(C)cc4c3s2)c1
→ -1.05 | .
Cc1noc(/C=C/N2CCOCC2)c1S(=O)(=O)N(C)CC(=O)N1CCc2ccccc21
→ . | 2.56

Part of the list above, as labelled records:
C=CCn1c(SCc2n[nH]c(=S)o2)nnc1-c1ccccc1
  CDC25B-CDK2 inh: -0.07
  HIV TAR-Tat: .

Cc1cc(C)c2c(n1)SCCN2C(=O)CCC(=O)NC1CCC(C)CC1 (stereo not drawn)
  CDC25B-CDK2 inh: .
  HIV TAR-Tat: -0.66

COc1ccc(OC)c(NC(=O)N2CCCC2c2cccs2)c1 (stereo not drawn)
  CDC25B-CDK2 inh: -0.55
  HIV TAR-Tat: 1.13

COc1ccc(Nc2nc(N3CCOCC3)nc3c2cnn3C)cc1
  CDC25B-CDK2 inh: .
  HIV TAR-Tat: -0.08

Going on with the list.
The line under a structure holds: CDC25B-CDK2 inh | HIV TAR-Tat
CC(=O)N1N=C(c2ccccn2)OC1c1cc(-c2ccccc2)nc2ccccc12 (stereo not drawn)
→ . | 0.69
Cc1ccc(C)c2[nH]c(=O)c(CCNC(=O)c3ccc(Br)o3)cc12
→ -0.66 | .
COc1ccccc1C1OC(c2cc(C3CC3)nc3ccccc23)=NN1C(C)=O (stereo not drawn)
→ . | 1.12
COc1ccccc1-c1nn2c(C3COc4ccccc4O3)nnc2s1 (stereo not drawn)
→ -2.32 | 0.66
Clc1ccc(-c2csc3ncnc(NCc4ccccc4)c23)cc1
→ -0.27 | 0.25
CCc1ccc(C2c3c(oc4ccc(F)cc4c3=O)C(=O)N2c2nc(C)c(C(=O)OC)s2)cc1 (stereo not drawn)
→ -0.16 | -2.01
O=C(CCc1nnc2ccc(NCc3ccco3)nn12)N1CCN(c2ccccn2)CC1
→ . | 2.21
O=C(Cn1c(=O)sc2ccccc21)N1CCCC1
→ -0.01 | .
CSc1n[nH]c(NC(=O)c2cccs2)c1-c1ccccn1
→ -1.84 | .
NC(=O)CC[C@H](N)C(=O)O
→ -1.85 | 2.65
Cc1nc2ncnn2c(C)c1CCC(=O)NCc1ccco1
→ 2.38 | .
CC(C)CC1NC(=S)N(c2ccccc2)C1=O (stereo not drawn)
→ -1.09 | .
CCOC(=O)c1c(NC(=O)CN(CC)C2CCCCC2)sc2c1CCCC2
→ 0.18 | 0.58
CSc1ccccc1NS(=O)(=O)c1ccc(N2CCCCS2(=O)=O)cc1
→ . | 0.42
CC1CCN(C(=O)CSc2ncnc3ccccc23)CC1
→ -1.23 | .
O=C(Nc1ccc(N2CCOCC2)cc1)c1ccc(-n2cccn2)cc1
→ -1.2 | .
CCOC(=O)C1CCN(S(=O)(=O)c2ccc(Br)cc2)CC1
→ 0.21 | 0.71
CCC(=O)Nc1nc2nc(C)c(Cl)c(=O)n2[nH]1
→ -1.64 | -1.09
Cc1c(C(=O)NCCCN2CCCC2=O)oc2ccc3c(c12)C(=O)CC1(CCCC1)O3
→ -0.76 | 2.24
CC1(C)CC(=O)C2=C(C1)OC(N)=C(C#N)C2c1cn(-c2ccccc2)nc1-c1ccccc1 (stereo not drawn)
→ -2.15 | .
CCN1C(C(=O)c2ccccc2)=C(OC(=O)c2ccco2)c2ccccc2S1(=O)=O
→ -0.58 | 1.17
Nc1cccc(C2=Nc3cccc4cccc(c34)N2)c1
→ -2.56 | 1.71
CC(C)c1ccc(-c2nc(C(N)=O)c3[nH]c(=O)n(C4CCCCC4)c3n2)cc1
→ . | 0.89
O=C(O)CCSc1nnc(-c2ccc(Cl)cc2)o1
→ 6.86 | 2.13
CCOc1cc(-c2cc(N)n(S(=O)(=O)c3ccccc3)n2)cc(OCC)c1OCC
→ -1.9 | .
O=C1CC(=O)Nc2cc(S(=O)(=O)N3CCN(C4CCCCC4)CC3)ccc2N1
→ 0.29 | 1.34
COCCCNC(=O)c1c(NC(=O)c2cc(-c3cccs3)on2)sc2c1CCCC2
→ -2.06 | 1.16
O=C(O)CCCSc1ccsc1[N+](=O)[O-]
→ . | 0.62
O=C(CN1c2ccc(Br)cc2-c2ccccc2S1(=O)=O)Nc1ccccc1F
→ -1.34 | 1.42
NC(=O)c1c(NC(=O)C2CCCN2S(=O)(=O)c2cccs2)sc2c1CCC2 (stereo not drawn)
→ . | 0.28
O=c1c2c(nc3cc(-c4ccccc4)[nH]n13)CCCC2
→ 1 | .
CN1C(C(=O)c2ccccc2)=C(OC(=O)CN2C(=O)CCC2=O)c2ccccc2S1(=O)=O
→ -1.29 | .
Cn1ncc2c(N3CCCC3)nc(N3CCOCC3)nc21
→ . | 1.82
O=C1NCCN1CCNS(=O)(=O)c1ccc(S(=O)(=O)c2ccccc2)s1
→ -0.75 | .
CCOc1cccc2c1Oc1[nH]c(-c3cccc(O)c3)nc(=S)c1C2
→ -1.93 | -0.91
CCSc1nn(CC(=O)N(CC)CC)c2nc3c(c(=O)n12)C(C)(CC)Cc1ccccc1-3 (stereo not drawn)
→ -1.19 | 0.16
Cc1ccc(C)n1-c1nnc(N2CCC(C(=O)NCCN(C)C)CC2)s1
→ -0.64 | -0.63
CN(C)CCNC(=O)C(=O)NCc1n[nH]c(=O)c2ccccc12
→ . | 2.05
COc1ccc(OCc2nc(C#N)c(N3CCC(C(N)=O)CC3)o2)cc1
→ 0.63 | 1.67
O=C(c1sccc1-n1cccc1)N1CCC(C(=O)N2CCCCCC2)CC1
→ -0.24 | .
O=C(NCc1cccn1Cc1ccccc1)Nc1ccccc1Br
→ . | 0.12
C=CCSc1ncc(Cl)c(C(=O)N(Cc2ccc(C)cc2)C2CCS(=O)(=O)C2)n1 (stereo not drawn)
→ 1.58 | 0.28
Cn1cnc(S(=O)(=O)Nc2ccccc2SCCS(=O)(=O)c2ccc(Cl)cc2)c1
→ 0.33 | .
Cn1c(=O)c2c(SCC(=O)N3CCCC3)nc(-c3ccccc3)nc2n(C)c1=O
→ . | -0.35
Cc1ccc(/C(O)=C2\C(=O)C(=O)N(CCCC(=O)O)C2c2ccccc2F)cc1 (stereo not drawn)
→ -1.27 | .
CCCCn1cc(S(=O)(=O)c2ccccc2)c(=O)c2cc(F)c(N(CC)CC)cc21
→ . | 0.82
c1ccc(C2C3=C(Nc4ncnn42)c2ccccc2CC3)cc1 (stereo not drawn)
→ -0.06 | 0.65
Cc1ccsc1C(=CCCN1CCC[C@@H](C(=O)O)C1)c1sccc1C
→ . | 0.75
COC1CC(O[C@H]2[C@H](C)[C@@H](OC3OC(C)CC(N(C)C)C3OC(C)=O)[C@@H](C)C[C@]3(CO3)C(=O)[C@H](C)[C@@H](OC(C)=O)[C@@H](C)[C@@H](C)OC(=O)[C@H]2C)OC(C)C1OC(C)=O (stereo partly drawn)
→ . | 2.62
COc1ccc2[nH]c(=O)c(-c3noc(-c4ccc(F)cc4)n3)cc2c1
→ 5.54 | 6.95

Other compounds follow.
The line under a structure holds: CDC25B-CDK2 inh | HIV TAR-Tat
CCCCOC(=O)c1ccc(N2CC(O)=C(c3nc4ccccc4s3)C2=N)cc1
→ -1.08 | 2.83
O=C(Nc1ccccc1Cl)N1Cc2cccn2-c2ccccc21
→ . | 0.92
COCCN1C(=O)CN(C2CCCCC2)C(=O)C1c1ccc(OC)c(OC)c1 (stereo not drawn)
→ -1.71 | .
O=C1C=C(NCc2ccco2)CC(c2ccccc2)C1 (stereo not drawn)
→ -1.2 | 0.24
O=c1c2ccccc2n(Cc2cc(=O)n3cc(Cl)ccc3n2)c(=O)n1-c1ccc(F)c(Cl)c1
→ . | 0.27
O=c1[nH]c2cc3c(cc2c(=O)n1CCc1nc(-c2ccccc2)no1)OCO3
→ . | 0.28
CCOC(=O)c1sc(C)c2c1NC(C)(c1ccccc1)NC2=O (stereo not drawn)
→ 0.69 | .
CCOc1cccc2c1OC(c1ccc(F)c(F)c1)N1N=C(c3cccnc3)CC21 (stereo not drawn)
→ -1.74 | .
Fc1ccccc1C1CC(c2cccnc2)Nc2nc3ccccc3n21 (stereo not drawn)
→ -0.86 | .
Cn1c(=O)cc2c3c(c(Nc4ccc(C=O)cc4)ccc31)C(=O)c1ccccc1-2
→ -1.48 | .
Cc1nc2ccccn2c(=O)c1NC(=O)c1c(F)cccc1Cl
→ . | 1.6

This is a random part of the collection, and some 0.87% of all compounds hit somewhere here.
